Sfp PPTase inh: qHTS Assay for Inhibitors of Bacillus subtilis Sfp phosphopantetheinyl transferase (PPTase) | 4'-phosphopantetheinyl transferase ffp (Bacillus subtilis), Q9F4F7 | Biochemical Sfp PPTase activity, qHTS | Potency, µM, without a hit: max response, negative = inhibition, hits mostly inhibitors | 310,000 compounds, 3.5% hits | AID 1490, 2009; active = well fitted inhibition curve with a large enough effect; inconclusive = small, poorly fitted or top-dose-only effect, or another doubt; inactive = no such curve, though single readings can be large or run the other way;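 note: the enzyme is Sfp with the accession as filed and its product quenches rhodamine fluorescence; potency is the fitted concentration of half-maximal effect; 0% = enzyme reaction without inhibitor and -100% = no enzyme wells; top concentration of the series not given in the record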
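After 15 min at room temperature with compound, 15 nM Sfp received 5 uM rhodamine-CoA plus 12.5 uM BHQ-2-ybbR (50 mM Hepes pH 7.6, 10 mM MgCl2). Rate came from the fluorescence difference over 30 min, ex 525/em 598 nm.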
gsp agonist: qHTS for Agonist of gsp, the Etiologic Mutation Responsible for Fibrous Dysplasia/McCune-Albright Syndrome: qHTS; 340,000 compounds, 0.13% hits; Potency, µM (top dose mostly 76.9 µM), for inactives: at the top dose activation (cAMP increase), most hits filed as activators; gsp mutant cells, cAMP HTRF, 30 min; control for the full effect not named in the record; active = well fitted activation curve with a large enough effect; inconclusive = small, poorly fitted or top-dose-only effect, or another doubt; inactive = no such curve, though single readings can be large or run the other way; cell line not stated here;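 note: phosphodiesterase inhibitor Ro 20-1724 added with compounds to block cAMP breakdown; potency is the fitted concentration of half-maximal effect; nearly all actives have a fitted effect of over 60% in size; about a fifth of the inactives were tested at one dose only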
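Cells in DMEM/10% FBS with G418 were pretreated with compounds in DMSO plus […] (300 uM stock) for 30 min at 37C. cAMP was measured by HTRF (cAMP-d2 plus anti-cAMP antibody-K) after 30 min at room temperature.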
PINK1 modulator: A Quantitative High throughput Screen to Identify Chemical Modulators of PINK1 Expression; AID 624263, 2012; Potency, µM (titrated, usually from 76.6 µM), inactives show at the highest dose activation (PINK1 increase), hits mostly activators; 410,000 compounds, 0.2% hits; PINK1 immunofluorescence, high-content cytometry, 24 h; active = well fitted activation curve with a large enough effect; inconclusive = small, poorly fitted or top-dose-only effect; inactive = flat fitted curve, though single readings scatter; cell line not stated here;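 note: potency is the fitted concentration of half-maximal effect; % of control where 0% means no effect; nearly all actives have a fitted effect of over 65% in size; a mitochondrial uncoupler was the plate control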
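Compound titrations (5 concentrations, 24 h) on a stable cell line; DMSO and CCCP controls. Endpoint: fixed-cell PINK1 immunofluorescence with mitochondrial, cell and nuclear markers, scanned by microplate cytometer.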
D2 agonist: Beta-Arrestin HTS for Positive Allosteric Modulators of the Human D2 Dopamine Receptor: Agonists | D(2) dopamine receptor (Homo sapiens), P14416 | DiscoveRx PathHunter D2 beta-arrestin, luminescence, 90 min; 100% = 57 uM dopamine signal | activation, % (no concentration beside the values) | 360,000 compounds, 0.084% hits; in the data active = activation above about 40%; inconclusive = about 15% to 40%; inactive = below about 15%; note: compound concentration not given in the record; the text of the record calls up to 30% inactive
Target sequence (P14416 whole entry, looked up): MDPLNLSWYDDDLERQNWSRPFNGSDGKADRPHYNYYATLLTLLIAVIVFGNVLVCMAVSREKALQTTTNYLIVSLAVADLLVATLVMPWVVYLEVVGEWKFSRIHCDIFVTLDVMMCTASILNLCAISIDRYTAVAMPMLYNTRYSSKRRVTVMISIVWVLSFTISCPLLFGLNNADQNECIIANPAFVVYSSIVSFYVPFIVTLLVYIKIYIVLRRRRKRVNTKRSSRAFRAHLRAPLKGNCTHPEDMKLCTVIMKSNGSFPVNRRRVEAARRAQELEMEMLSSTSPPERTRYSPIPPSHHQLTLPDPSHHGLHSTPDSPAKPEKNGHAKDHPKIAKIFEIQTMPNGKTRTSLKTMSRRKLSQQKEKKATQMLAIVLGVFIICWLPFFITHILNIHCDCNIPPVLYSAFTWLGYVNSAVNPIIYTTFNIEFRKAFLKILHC
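Agonist mode: compounds alone added to overnight-plated D2 PathHunter cells for 90 min at 37 C, with 57 uM final dopamine (EC100) defining full response. Beta-arrestin recruitment detected by chemiluminescent reagent, read after 1 h at ambient temperature.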
ClpP mod: qHTS Assay for Activators of ClpP | purified B. subtilis ClpP, FRET peptide cleavage, 20 min | 340,000 compounds, 1.9% hits | Potency, µM (top dose mostly 57.5 µM), without a hit: at the highest dose activity change, negative = active | AID 651965, 2013 | ATP-dependent Clp protease proteolytic subunit (Bacillus subtilis (strain 168)), P80244; active = well fitted falling curve with a large enough effect; inconclusive = small, poorly fitted or top-dose-only effect; inactive = no such curve, though single readings can be large or run the other way; note: potency is the fitted concentration of half-maximal effect; the source files actives as falling curves though it sought activators and does not explain the sign; nearly all actives have a fitted effect of over 65% in size; many hits overshoot -100%
Target sequence (P80244 whole entry, looked up): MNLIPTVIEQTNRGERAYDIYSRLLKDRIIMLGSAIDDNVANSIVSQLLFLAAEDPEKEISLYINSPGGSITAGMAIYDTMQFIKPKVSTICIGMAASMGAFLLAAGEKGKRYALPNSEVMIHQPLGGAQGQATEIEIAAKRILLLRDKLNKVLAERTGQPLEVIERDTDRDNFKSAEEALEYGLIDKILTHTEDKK
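FRET quenching reversal measured ClpP activation: 10 microg/mL B. subtilis ClpP at pH 8 with the FRET-FV decapeptide, read at 430 nm after 320 nm excitation. The 20-min minus 0-min signal was scaled between DMSO/no-enzyme wells and ADEP (5.8 microM final).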
Menin MLL FP FL: qHTS Assay for Inhibitors Targeting the Menin-MLL Interaction in MLL Related Leukemias: Competition With Fluorescein Labeled MLL-derived Peptide. Fluorescence polarization, fluorescein-MLL peptide displacement from menin. FP activity change, % at 61.4 µM. 290,000 tested, under 10 active. AID 1766, 2009; inconclusive = falling polarisation curve, or a change in total fluorescence; inactive = total fluorescence flat and polarisation flat or rising; no compound was filed as active; the % refers to the polarisation; negative = inhibition;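 note: % of control where 0% means no effect; inhibitors lower the polarisation; unlabelled MLL peptide was the positive control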
gsp antag: qHTS for Antagonists of gsp, the Etiologic Mutation Responsible for Fibrous Dysplasia/McCune-Albright Syndrome: qHTS. gsp-mutant cells, cAMP HTRF, 30 min; control for the full effect not named in the record. Potency, µM (highest dose often 76.9 µM), inactives show top-dose activity change, negative = inhibition, actives largely listed as inhibitors. 340,000 compounds, 0.4% hits. AID 624288, 2012; active = falling curve of any shape with a large fitted effect; inconclusive = falling curve, mostly with a smaller effect; inactive = flat or rising curve; cell line not stated here;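 note: intracellular cAMP measured with PDE inhibitor Ro 20-1724 present during compound exposure; potency is the fitted concentration of half-maximal effect; % is set by controls: 0 for no effect and ±100 for the full control effect; nearly all actives have a fitted effect of over 65% in size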
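Measurement of cellular cAMP by homogeneous time-resolved fluorescence following a 30 min compound exposure at 37C. The PDE inhibitor […] was present throughout; the assay buffer was DPBS with 0.05% BSA and 0.005% Tween 20.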
The depositor's hits bear a star; ? = inconclusive; . = not tested or not shown; [ ] = dose if it differs, or a comment. This is a random part of the collection. About 5.1% of those tested had a hit in this group.

Under each structure – Sfp PPTase inh	gsp agonist	ClpP mod	Menin MLL FP FL	gsp antag	PINK1 modulator	D2 agonist
> Cc1ccccc1C(=O)Nc1ccc(C(=O)N/N=C/c2ccncc2)cc1
  ?	-7%[15.4 µM]	.	4.6	-9%	-1.3%	-1.0
> CC(C)(C)c1cc(C(=O)N/N=C/c2cc3c(cc2Br)OCO3)n[nH]1
  9%	-1%	-28%	.	?	5.8%	5.9
> Cc1[nH]n(-c2ccccc2)c(=O)c1N=Nc1ccc2c(c1)OCCO2
  -2%	2%	0.1%	-7.3	11%	2.4%	-3.7
> CNC(=S)N1CCN(CCNC2=CC(=O)CC(C)(C)C2)CC1
  2%	0%	1.8%	-7.6	5%	4.5%	-4.0
> CN(C(=O)CC(NC(=O)c1ccccc1Cl)c1ccccc1)c1ccccc1 (configuration not stated)
  15%	2%	0.6%	.	-2%	0.1%	-5.2
> O=C(c1ccc([N+](=O)[O-])cc1[N+](=O)[O-])N1CCN(C(=O)C2CCCO2)CC1 (configuration not stated)
  .	-2%	0.9%	.	17%	0.6%	?
> COc1ccccc1OC(=O)CN1C(=O)c2ccccc2C1=O
  5%	-40%[inhibitor]	-2.1%	5.1	-12%	-2.0%	-2.9
> CC1(C(=O)NC2CCCC2)CCN1C(=O)Cc1ccc(-c2ccccc2)cc1 (configuration not stated)
  .	.	-0.1%	.	.	2.5%	10
> CC(C)(C)C(=O)CSc1nnc(-c2cccs2)n1CC1CCCO1 (configuration not stated)
  11%	?	-16%	1.6	1%	2.1%	1.9
> CCCCNC(=O)CCCCCn1c(=O)[nH]c2cc(C(=O)OC)ccc2c1=O
  5%	-55%[15.4 µM]	-1.6%	-1.9	-7%	-1.8%	2.2

Individual results from the list:
For D2 agonist, CNC(=S)N1CCN(CCNC2=CC(=O)CC(C)(C)C2)CC1 shows -4.0
For Sfp PPTase inh, CCCCNC(=O)CCCCCn1c(=O)[nH]c2cc(C(=O)OC)ccc2c1=O shows 5%

More entries follow:
Under each structure – Sfp PPTase inh	gsp agonist	ClpP mod	Menin MLL FP FL	gsp antag	PINK1 modulator	D2 agonist
> COCCNc1nc(SCc2ccccc2)nc2sc3c(c12)CCC3
  2%	-24%	-4.2%	4.2	-21%	0.4%	-4.8
> Cc1cccc2c1OCC/C2=N\NC(=O)COc1ccccc1Cl
  -15%	-24%	-1.3%	-1.0	-22%	?	-2.1
> Cc1c(C(=O)Nc2ccc(Br)cc2)cnn1C
  -21%	-5%	1.7%	1.5	9%	-1.2%	-3.5
> COc1ccc(CN2C(=O)c3cccnc3C2=O)cc1S(=O)(=O)NC1CCCCC1
  7%	?	1.7%	.	-1%	0.2%	-3.6
> CCOC(=O)C1=C(CS(=O)(=O)c2ccccc2)NC(=O)NC1c1ccc(OC)c(OC)c1 (configuration not stated)
  3%	21%	-1.9%	1.7	7%	-1.8%	5.6
> COc1ccc(CCNC(=O)CCC2COc3ccccc3O2)cc1OC (configuration not stated)
  17%	-79%[inhibitor]	-0.8%	0.4	3%	5.7%[38.3 µM]	-0.7
> CC1CC(=O)N(CC(=O)NCc2ccccc2)c2ccccc2S1(=O)=O (configuration not stated)
  12%	36%	-0.8%	0.6	-1%	0.5%	0.5
> Cc1ccc(/C=N/n2c(C3CCCCC3)n[nH]c2=S)cc1
  50µM*	4%[15.4 µM]	-1.4%	-2.0	-19%	5.7%	-5.2
> CNc1nc2c(N)ncnc2n1[C@H]1O[C@@H](CO)[C@H](O)[C@@H]1O
  13%	28%	-1.2%	-2.2	2%	-1.6%	-2.2
> CC1=C(C#N)C(Nc2ccc(Cl)cn2)(C(F)(F)F)C(=O)N1 (configuration not stated)
  12%	-50%[inhibitor]	3.0%	-0.4	8%	-0.9%	0.9
> Cc1ccc(S(=O)(=O)N(C)CC(=O)OCC(=O)N2CC(=O)Nc3ccccc32)cc1
  8%	15%	1.9%	5.5	-19%	0.1%	3.5
> CC(NC1c2ccccc2-c2ccccc21)c1ccccc1 (configuration not stated)
  14%	2%	.	5.5	-2%	27%	-3.2
> CCN1C(=O)NC(c2ccc(Cl)cc2)C2=C1CCCC2=O (configuration not stated)
  14%	0%	.	0.8	7%	0.8%	-1.4
> CN(/N=C\c1ccc(O)c(O)c1)c1nc(-c2ccccc2)cc(-c2ccccc2)n1
  ?	-3%	-0.8%	5.4	-3%	-3.8%	5.8
> COc1ccc(OCC2c3cc(OC)c(OC)cc3CCN2C(=O)C(C)C)cc1 (configuration not stated)
  1%	0%[15.4 µM]	.	2.4	-9%	6.5%	-3.9
> CCCc1nc(-c2cc3ccc(C)cc3[nH]c2=O)no1
  22%	7%	28µM*	3.1	6%	-6.6%[38.3 µM]	-3.3
> Cc1cccc(N2C(=O)CC(Sc3nc(C)c4c(n3)CCCC4)C2=O)c1 (configuration not stated)
  16%	2%	-2.5%	4.7	-18%	0.5%[38.3 µM]	-1.5
> NNC(=O)c1ccc2[nH]c3c(c2c1)CCCC3
  5%	22%	-1.1%	2.5	12%	2.2%	-4.2
> Cc1ccc(CS(=O)Cc2ccc(C(=O)N3CCN(c4ccccc4)CC3)o2)cc1 (configuration not stated)
  3%	-2%	-0.5%	-4.5	-19%	1.0%	-0.1
> COC(=O)CSCC(=O)Nc1nnc(-c2cccc(C)c2)s1
  2%	-78%[inhibitor]	-10%	0.6	?	-1.2%	-0.4
> COc1ccc(/C=C/C(=O)N2CCN(c3ccccn3)CC2)cc1
  4%	-1%	-3.0%	.	-13%	1.0%	0.1
> CC(C)(C)c1ccc(NC(=O)CON=C(N)c2ccccc2)cc1
  .	-32%[15.4 µM]	.	.	2%	4.4%	-0.7
> CCOC(=O)c1ccccc1NC(=O)COC(=O)CCC(=O)c1ccccc1
  -8%	?	-0.6%	.	1%	-1.5%	-1.1
> O=C(CNc1cccc2ccccc12)c1ccc([N+](=O)[O-])cc1
  -28%	0%	5.6µM*	3.1	1%	2.5%	10
> COc1cc(NC(=O)CN2CCN(c3ccccc3F)CC2)c(C)cc1[N+](=O)[O-]
  7%	?	0.0%	3.2	-2%	-1.7%	-1.5
> O=C1NC2(CCCCCC2)C(=O)N1CCS(=O)(=O)Oc1ccccc1
  22%	-37%	.	2.2	5%	0.3%	1.1
> Cn1cc(C2NC(=O)c3ccccc3N2)c2ccccc21 (configuration not stated)
  .	?	28µM*	.	6%	12%	2.3
> COC(=O)c1ccc(C(=O)OC)c(NC(=S)N2CCN(C(=O)C3CCCO3)CC2)c1 (configuration not stated)
  -10%	3%[15.4 µM]	.	-0.3	-6%	-0.2%	-2.6
> COc1ccc(CCNC(C)C(=O)Nc2ccc(S(N)(=O)=O)cc2)cc1 (configuration not stated)
  18%	?	-1.1%	4.4	-4%	4.5%	-4.5
> COc1ccc(CNC(=O)COC(=O)c2c(NC(C)=O)sc(C)c2C)cc1
  .	1%	-4.2%	.	10%	4.4%	0.1
> Nc1cc(-c2ccco2)no1
  ?	-2%[15.4 µM]	0.2%	2.2	2%	-1.1%	0.6
> CC(=O)Nc1ccc(S(=O)(=O)NC(CC(=O)NCCC2=CCCCC2)C(C)C)cc1 (configuration not stated)
  4%	-12%	1.8%	2.7	6%	-0.9%	-1.4
> CC1(C(=O)NS(=O)(=O)c2ccc(Cl)cc2)CCN1C(=O)CCC1CCCC1 (configuration not stated)
  .	.	-0.5%	.	.	0.0%	4.0
> Cn1c(N2CCOCC2)cc(=O)n(C)c1=O
  17%	?	.	2.5	-3%	-0.3%	-1.4
> COc1ccc(CNCc2c(F)cccc2F)cc1OC
  -7%	8%[15.4 µM]	-8.1%	-4.5	-6%	-1.4%	-2.2
> O=C(N/N=C/c1ccccc1Br)c1ccc(CSc2cccc3cccnc23)cc1
  11%	-47%[inhibitor]	?	3.5	-15%	.	0.9
> COc1ccc(NC(=S)N2CCN(c3ccc4c(c3)C3CCN(C(=O)OCc5ccccc5)C4C3)CC2)c(OC)c1 (configuration not stated)
  .	.	-4.0%	.	.	0.0%	-6.1
> C[C@H](NC(=O)NCCc1ccccc1)C(=O)O
  -17%	-50%[inhibitor]	2.1%	-0.4	5%	0.9%	-0.7
> Cc1cc(C)n(-c2ccc(C(=O)Nc3cc(S(=O)(=O)N(C)C)ccc3Cl)cc2)n1
  15%	5%	-15%	3.0	-9%	12%	6.1
> Cc1cc(Br)cc(C)c1OCCCCN(C)C
  79µM*	-3%	0.7%	1.7	-1%	0.3%[38.3 µM]	4.2
> COC(=O)c1c(C)nn(-c2ccc(F)c(Cl)c2)c1-c1cc(C)on1
  1%	?	.	3.1	-6%	4.7%	-3.3
> COc1ccc(-c2nc3n(n2)C(c2cccnc2)C(C(N)=O)=C(C)N3)cc1 (configuration not stated)
  12%	-32%[inhibitor]	5.4%	5.1	3%	1.9%	-2.4
> COc1ccc(CCNS(=O)(=O)c2ccc(N3CCCC3=O)cc2)cc1
  .	-15%	-1.6%	.	-5%	-1.6%	-1.8

Ordered by the number under Menin MLL FP FL (descending): 3 from the list above.
Molecule,Sfp PPTase inh,gsp agonist,Menin MLL FP FL,gsp antag,PINK1 modulator,D2 agonist
O=C(N/N=C/c1ccccc1Br)c1ccc(CSc2cccc3cccnc23)cc1,11%,-47%[inhibitor],3.5,-15%,.,0.9
COC(=O)c1c(C)nn(-c2ccc(F)c(Cl)c2)c1-c1cc(C)on1,1%,?,3.1,-6%,4.7%,-3.3
COc1ccc(CNCc2c(F)cccc2F)cc1OC,-7%,8%[15.4 µM],-4.5,-6%,-1.4%,-2.2

Bioassay records from PubChem BioAssay.
